Bioassay records deposited in PubChem by Southern Research Institute.
total CFTR – compounds raising F508del-CFTR protein level – cell-based, HeLa F508del-CFTR, immunofluorescence, viability, primary screen (AID 1224863) | HeLa F508del-CFTR, immunofluorescence total CFTR, 24 h; by the record results were divided by relative cell number; some inactives read as strong as hits | calls, or highest fold increase where a dose series was run | hit rate 0.1% among 10,000; in the data nearly all actives have a first-pass fold increase above 1.5; a few of its hits are not listed in these tables;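 note: total CFTR protein by anti-CFTR immunofluorescence in fixed cells; first pass at 25 µM or 10 µg/mL by library and series up to twice that; 1 = untreated cells; first-pass hits also needed half or more of the cells alive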
total CFTR fold 25 µM – recorded beside total CFTR, whose call it bears; fold increase; measured here: primary screen single dose 25 uM; library dosed in µM
total CFTR fold 10 ug/mL – recorded beside total CFTR, whose call it bears; fold increase; measured here: primary screen 10 ug/mL
total CFTR viability 25 µM – further read-out of total CFTR, marked with its call; viability, %; measured here: primary viability 25 uM; library dosed in µM;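 0% = killed and 100% = untreated cells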
total CFTR viability 10 ug/mL – recorded beside total CFTR, whose call it bears; viability, %; measured here: primary viability 10 ug/mL;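 0% = killed and 100% = untreated cells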
* hit, by the source's call; i = inactive; nt = not tested or not shown; & = joins results of further samples. An excerpt, so the mix of outcomes need not match the whole.

SMILES	total CFTR	total CFTR fold 10 ug/mL	total CFTR viability 10 ug/mL	others
CCN(C(=O)CSc1ncnc2sc3c(c12)CCC3)C1CCS(=O)(=O)C1 (centres undefined)	i	0.96	86
O=C(CN1CSCC1=O)NC1CCN(C(=O)c2ccoc2)CC1	i	1.1	103
CN1CCN(CCCN2c3ccccc3Sc3ccc(Cl)cc32)CC1	i	nt	nt	total CFTR fold 25 µM=0.63;total CFTR viability 25 µM=3
O=C(NCc1cccs1)c1cc(C2CC2)[nH]n1	i	0.84	89
CCOC(=O)C1=C(COC(=O)c2ccc(OCC3CCCO3)cc2)NC(=O)NC1C (centres undefined)	i	0.99	94
COc1ccccc1Oc1c(NS(=O)(=O)c2ccc(C(C)(C)C)cc2)nc(-c2ncccn2)nc1OCCO	i	nt	nt	total CFTR fold 25 µM=0.97;total CFTR viability 25 µM=93
O=C(O)c1ccccc1O	i	nt	nt	total CFTR fold 25 µM=1.1&1.1;total CFTR viability 25 µM=94&101
COc1ccc(/C=C/S(=O)(=O)c2ccc([N+](=O)[O-])cc2)cc1OC(F)F	i	0.95	92
O=C1C(=O)N(CN2CCOCC2)C(=O)N1CCc1cccs1	i	1	97
NS(=O)(=O)c1cc2c(cc1Cl)NC(C1CC3C=CC1C3)NS2(=O)=O (centres undefined)	i	nt	nt	total CFTR fold 25 µM=1.2;total CFTR viability 25 µM=105
CCN(CC)S(=O)(=O)c1ccc2nnn(OCc3ccc(Cl)s3)c2c1	i	1	90
CCc1nc2ccccc2n1CCOc1ccc(Br)cc1	i	0.89	81
O=[N+]([O-])c1ccc2c(cnn2CN2CCC(c3nc4ccccc4s3)CC2)c1	i	1.2	95
CN(C)C(=O)C1Cc2cc([N+](=O)[O-])ccc2N2CCCCC12 (centres undefined)	i	1.1	78
CCCc1ncc(C[n+]2ccccc2C)c(N)n1	i	nt	nt	total CFTR fold 25 µM=1.1;total CFTR viability 25 µM=81
CC1CCN(C(CNc2ccc3nnnn3n2)c2cccs2)CC1 (centres undefined)	i	1	87
CCCCn1c(N)c(N(CC)C(C)=O)c(=O)[nH]c1=O	i	1	101
c1ccc(CN2CCC(Nc3ccc4nnnn4n3)C2)cc1 (centres undefined)	i	1	96
CC1(O)CCC(C(C)(C)O)CC1 (centres undefined)	i	nt	nt	total CFTR fold 25 µM=1.1;total CFTR viability 25 µM=84
CO/N=C(/C(=O)NC1C(=O)N2C(C(=O)OC(C)OC(C)=O)=C(COC(N)=O)CSC12)c1ccco1 (centres undefined)	i	nt	nt	total CFTR fold 25 µM=1.1;total CFTR viability 25 µM=93
Cc1ccc(O)cc1	i	nt	nt	total CFTR fold 25 µM=1.1;total CFTR viability 25 µM=109
Cc1cccc(C)c1NC(=O)C(C)N (centres undefined)	i	nt	nt	total CFTR fold 25 µM=1.1;total CFTR viability 25 µM=101
CC(C)N(C(=O)CN1C(=O)NC2(CCc3ccccc32)C1=O)C(C)C (centres undefined)	i	1	102
O=C1/C(=C\c2sc(N3CCCCC3)nc2-c2cccs2)N=C2CCCN12	i	1.4	105
O=C(COCC1CC1)Nc1cn[nH]c1	i	1.1	104
Cn1nnnc1Sc1ccnc2cc(Cl)ccc12	i	0.61	10
CN(C)CC[C@@H](c1ccc(Cl)cc1)c1ccccn1	i	nt	nt	total CFTR fold 25 µM=0.95&1;total CFTR viability 25 µM=104&85
C1CCc2nnnn2CC1	i	nt	nt	total CFTR fold 25 µM=1.1;total CFTR viability 25 µM=107
Cc1ccc(S(=O)(=O)N(C)Cc2nc3ccccc3s2)s1	i	0.95	87
NCCN1CCCCCC1=O	i	1	93
CC(C)(C)c1ccc(C2=C(c3ccc([N+](=O)[O-])cc3)C(=O)OC2)cc1	i	0.94	100
O=C(OCC(=O)N1CCCC1=O)c1cc2ccccc2cc1O	i	1.1	105
Nc1c(C(=O)NCc2ccco2)sc2nc3c(c(-c4ccco4)c12)CCCC3	i	1	95
COc1ccc(OC)c(C2CCCN2S(=O)(=O)N(C)C2CCCCC2)c1 (centres undefined)	i	1	81
Cc1ccc(-n2nnnc2SCc2nnc(-c3ccc([N+](=O)[O-])cc3)o2)c(C)c1	i	1.1	105
O=[N+]([O-])c1cc(C(F)(F)F)c(Cl)cc1N1CCN(c2ccccc2F)CC1	i	0.98	107
CC1(C)NC(=O)N(CCSc2ccc([N+](=O)[O-])cc2)C1=O	i	1	104
Cc1ccc(CNC(=O)NCC2CCN(C3CC3)C2)cc1 (centres undefined)	i	1	95
CCn1nnnc1SCc1nnc(-c2ccc(Br)o2)o1	i	0.84	89
COc1cccc(Nc2nnc(SCCO)s2)c1	i	0.87	81
O=C(c1ccco1)N1CCC(C(=O)N2CCN(C(=O)c3cccs3)CC2)CC1	i	1.1	95
C=CCn1c(SC(C)C(=O)c2[nH]c(C)c(C(C)=O)c2C)nnc1C1COc2ccccc2O1 (centres undefined)	i	0.91	96
Cc1ccc(C)c(C(C)NC(=O)C23CC4CC(CC(C4)C2)C3)c1 (centres undefined)	i	0.98	97
O=S(CCSc1nnc(Nc2ccc(F)cc2)s1)c1ccccc1 (centres undefined)	i	0.87	84
CC(C)c1nc(SCc2nnsc2Cl)n[nH]1	i	1	93
S=c1nc[nH]c2nc[nH]c12	i	nt	nt	total CFTR fold 25 µM=1.1;total CFTR viability 25 µM=70
C=CCn1c(SCC(=O)N2CC3(C)CC2CC(C)(C)C3)nc2sc(CC)cc2c1=O (centres undefined)	i	0.91	73
COc1cc(CNCc2ccc(N(C)C)cc2)cc(Cl)c1OC	i	0.9	74
CN(C)C1(CNS(=O)(=O)N2CCCCCC2)CCCCCC1	i	1.3	102
CCc1nn2c(=O)cc(CNc3cc4c(cc3Cl)NC(=O)CO4)nc2s1	i	1.1	94
CN(CC1COc2ccccc2O1)C(=O)C1(C)CC1(Cl)Cl (centres undefined)	i	1.1	100
CC1CN(C(C)(C)CNS(=O)(=O)/C=C/c2ccccc2)CC(C)O1 (centres undefined)	i	0.94	88
CN(C(=O)CSc1ccc2c(c1)OCCO2)C1(C#N)CCCCC1	i	0.99	84
Cc1sc2nc(CN3CCCC3)nc(-n3nnc(-c4cccnc4)n3)c2c1C	i	1	84
Cc1onc(-c2ccccc2)c1C(=O)OCc1nnsc1Cl	i	1	105
Cc1cc(C(=O)CSc2nncn2C2CC2)c(C)n1Cc1ccco1	i	1.1	84
CC(NC(=O)C1CC1)c1ccco1 (centres undefined)	i	1.3	101
CC1C/C=C/C=C/C=C/C=C/C(O[C@@H]2O[C@H](C)[C@@H](O)[C@H](N)[C@@H]2O)CC2OC(O)(CC(O)CC3OC3/C=C/C(=O)O1)CC(O)C2C(=O)O (some centres undefined)	i	nt	nt	total CFTR fold 25 µM=1;total CFTR viability 25 µM=83
O=C1NCCCCC1Sc1nnc(N2CCOCC2)n1-c1ccccc1 (centres undefined)	i	1	89
COc1cc(CN2C(=O)C(=O)N(CC(C)C)C2=O)c(OC)cc1Br	i	0.94	98

Sorted by formula weight (smallest number first): 18 of the compounds above
SMILES	total CFTR	total CFTR fold 10 ug/mL	total CFTR viability 10 ug/mL	others
S=c1nc[nH]c2nc[nH]c12	i	nt	nt	total CFTR fold 25 µM=1.1;total CFTR viability 25 µM=70
CC(NC(=O)C1CC1)c1ccco1 (centres undefined)	i	1.3	101
CC(C)c1nc(SCc2nnsc2Cl)n[nH]1	i	1	93
COc1cccc(Nc2nnc(SCCO)s2)c1	i	0.87	81
CN(CC1COc2ccccc2O1)C(=O)C1(C)CC1(Cl)Cl (centres undefined)	i	1.1	100
CN(C)C1(CNS(=O)(=O)N2CCCCCC2)CCCCCC1	i	1.3	102
COc1cc(CNCc2ccc(N(C)C)cc2)cc(Cl)c1OC	i	0.9	74
Cc1onc(-c2ccccc2)c1C(=O)OCc1nnsc1Cl	i	1	105
CN(C(=O)CSc1ccc2c(c1)OCCO2)C1(C#N)CCCCC1	i	0.99	84
CC1CN(C(C)(C)CNS(=O)(=O)/C=C/c2ccccc2)CC(C)O1 (centres undefined)	i	0.94	88
Cc1cc(C(=O)CSc2nncn2C2CC2)c(C)n1Cc1ccco1	i	1.1	84
O=S(CCSc1nnc(Nc2ccc(F)cc2)s1)c1ccccc1 (centres undefined)	i	0.87	84
CCc1nn2c(=O)cc(CNc3cc4c(cc3Cl)NC(=O)CO4)nc2s1	i	1.1	94
COc1cc(CN2C(=O)C(=O)N(CC(C)C)C2=O)c(OC)cc1Br	i	0.94	98
O=C(c1ccco1)N1CCC(C(=O)N2CCN(C(=O)c3cccs3)CC2)CC1	i	1.1	95
C=CCn1c(SCC(=O)N2CC3(C)CC2CC(C)(C)C3)nc2sc(CC)cc2c1=O (centres undefined)	i	0.91	73
C=CCn1c(SC(C)C(=O)c2[nH]c(C)c(C(C)=O)c2C)nnc1C1COc2ccccc2O1 (centres undefined)	i	0.91	96
CC1C/C=C/C=C/C=C/C=C/C(O[C@@H]2O[C@H](C)[C@@H](O)[C@H](N)[C@@H]2O)CC2OC(O)(CC(O)CC3OC3/C=C/C(=O)O1)CC(O)C2C(=O)O (some centres undefined)	i	nt	nt	total CFTR fold 25 µM=1;total CFTR viability 25 µM=83

Next part.
SMILES	total CFTR	total CFTR fold 10 ug/mL	total CFTR viability 10 ug/mL	others
CC1CN(C(C)(C)CNS(=O)(=O)c2cn(C)c(=O)n(C)c2=O)CC(C)O1 (centres undefined)	i	1	89
C=CCN1C(=O)c2ccccc2N2C(=O)CCC12C(=O)OCC(=O)NC1CCCCCC1 (centres undefined)	i	1.1	94
CC1(NC(=O)Cc2c(F)c(F)c(F)c(F)c2F)CCS(=O)(=O)C1 (centres undefined)	i	1.1	92
c1ccc(-c2nnn(CN3CCC(c4nc5ccccc5o4)CC3)n2)cc1	i	1	103
Cc1nc2c(C(N)=O)cnn2c(C)c1CCC(=O)O	i	1.1	89
O=C(/C=C/c1cccs1)N1CCC2(CC1)OCCO2	i	0.87	92
Cc1noc(C)c1COc1cccc(-n2cnnn2)c1	i	1	95
Cc1cc(=O)n2nc(NC3CCCCCCC3)sc2n1	i	1.1	91
Cc1cc(C)n2nc(C(=O)OCc3sc4ccccc4c3Cl)nc2n1	i	1	102
Cc1csc(-c2ccc([N+](=O)[O-])cc2)n1	i	0.92	79
CN(Cc1ccc(Cl)s1)CN1C(=O)CC2(CCCC2)C1=O	i	1.1	107
Cc1ccc(Cl)c(Nc2ccccc2C(=O)O)c1Cl	i	nt	nt	total CFTR fold 25 µM=1.1;total CFTR viability 25 µM=89
CC(C)c1nc(SCc2nnnn2-c2ccccc2)n[nH]1	i	0.94	98
Cc1ccc(S(=O)(=O)N2CCN(C(=O)c3ccoc3)CC2)s1	i	1	97
N#Cc1ccc(-c2nnco2)cc1	i	1.3	105
COC(=O)CCc1ccc(OCC(O)CNC(C)C)cc1 (centres undefined)	i	nt	nt	total CFTR fold 25 µM=1;total CFTR viability 25 µM=111
CCN1CCCC1CNCc1cc(Cl)ccc1OC(F)F (centres undefined)	i	1.1	106
Cc1nc2n(c(=O)c1CCN1CCC(c3noc4cc(F)ccc34)CC1)CCCC2	i	nt	nt	total CFTR fold 25 µM=1.1&0.96&1.1;total CFTR viability 25 µM=88&107&101
CC(C)[N+]1(C)[C@@H]2CC[C@H]1CC(OC(=O)C(CO)c1ccccc1)C2 (some centres undefined)	i	nt	nt	total CFTR fold 25 µM=1.1;total CFTR viability 25 µM=92
c1ccc(-n2ncc3c(NC4CC4)ncnc32)cc1	i	1	90
CC(C)(C)CCN1CCNCC1	i	1.1	105
O=C(Cn1cc(Br)c(=O)[nH]c1=O)NC1CCCCCC1	i	0.94	84
c1cc(-c2noc(CSc3nnnn3C3CCCCC3)n2)cs1	i	0.95	97
COc1ccc(-n2cnn(CN3CCN(c4ccc(F)cc4)CC3)c2=S)cc1	i	0.91	101
CN(CC(=O)NCc1cccs1)c1cnccn1	i	1	93
Cc1ccsc1C(=O)NCc1csc(Br)c1	i	1	78
O=C(O)CCC(=O)Nc1ccc(S(=O)(=O)Nc2nccs2)cc1	i	nt	nt	total CFTR fold 25 µM=1;total CFTR viability 25 µM=82
C[C@@H](NCCc1ccc(O)cc1)[C@@H](O)c1ccc(O)cc1	i	nt	nt	total CFTR fold 25 µM=1;total CFTR viability 25 µM=112
CC1CN(Cc2coc(-c3ccc(Cl)cc3)n2)CC(C)O1 (centres undefined)	i	0.84	77
CN(C1CCCCC1)S(=O)(=O)c1ccc(SCCN2CCOCC2)nc1	i	0.92	101
CCCCOC(=O)c1ccc(O)cc1	i	nt	nt	total CFTR fold 25 µM=1.1;total CFTR viability 25 µM=87
CCc1nnc(CN2CCN(S(=O)(=O)c3c(C)c(C)c(C)c(C)c3C)CC2)o1	i	0.94	83
CCOCCCn1c(SC)nc2ccc(Br)cc2c1=O	i	0.82	83
COC(CNc1ccc(C(F)(F)F)cc1[N+](=O)[O-])c1ccccc1 (centres undefined)	i	1	80
C=CCn1cnn(CN2CCN(c3nnnn3-c3ccccc3)CC2)c1=S	i	0.97	97
Cn1c(=O)c2ccccc2n2c(CN3CCCC(O)C3)nnc12 (centres undefined)	i	0.98	99
COc1cc2c(cc1/C=C(/C#N)c1nc(C)cs1)OC(C)C2 (centres undefined)	1.4	2.4	87
Cc1ccc(S(C)(=O)=O)cc1NCC1CC1(Cl)Cl (centres undefined)	i	1.1	94
O=S(=O)(c1ccc(SCc2ccc(Cl)cc2)nc1)N1CCCC1	i	0.92	114
O=C1c2ccccc2C(=O)C1c1ccccc1	i	nt	nt	total CFTR fold 25 µM=1;total CFTR viability 25 µM=99
CN(Cc1ccc(Cl)s1)Cn1nc(-c2cccnc2)n(C2CC2)c1=S	i	0.93	101
